# GIV-Gai inh: inhibitors of GIV GBA-motif binding to rat Galpha-i3 | AID 1224905 | Galpha-i3/FITC-GIV peptide fluorescence polarization, 90 min; active compounds read low; scaled: aluminum fluoride 0%, vehicle 100% | actives 0.42% (n = 210,000) | percent of control (FP), % (no concentration beside the values);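 active = replicate mean at 85% of control or lower, very high polarization wells dropped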;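 also: wells of about 15 µL received 100 nL stock; the first replicate is given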
# Target sequence (P08753 whole entry, looked up): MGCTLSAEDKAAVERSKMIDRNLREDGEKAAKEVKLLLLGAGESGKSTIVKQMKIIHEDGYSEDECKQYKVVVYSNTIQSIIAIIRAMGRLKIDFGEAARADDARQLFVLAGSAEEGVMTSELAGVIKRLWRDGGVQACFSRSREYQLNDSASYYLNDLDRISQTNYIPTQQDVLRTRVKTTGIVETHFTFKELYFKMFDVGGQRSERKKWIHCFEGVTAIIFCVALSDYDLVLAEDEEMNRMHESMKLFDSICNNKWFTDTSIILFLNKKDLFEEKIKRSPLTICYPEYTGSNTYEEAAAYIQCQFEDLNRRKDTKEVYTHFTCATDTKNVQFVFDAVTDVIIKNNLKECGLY
# HCMV NEC inh: disrupts HCMV UL50-UL53 complex binding. HTRF UL50-UL53 interaction, normalized percent inhibition. inhibition, % (test concentration not listed). actives 0.15% (n = 190,000);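 active = both replicates at 50% or more, plus weaker picks with an unusually low signal ratio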;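 also: stock transfer was 100 nL into about 20 µL; 0% = negative control wells and 100% = wells with untagged competitor protein; inactives centre near -12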
# Sa growth inh: S. aureus growth inhibition | S. aureus RN4220 growth, OD600, 20 h, 42 °C; active compounds read low | relative growth, % (no concentration beside the values) | actives 0.53% (n = 170,000);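 active = growth at 42 °C up to 50% and 20 or more points under that at 30 °C, or under 10% at both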;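 also: 300 nL library stock went into each well; scaled to the means of positive and negative controls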
# Sa growth inh second temp: further read-out of Sa growth inh, marked with its call; relative growth, %; measured here: growth at 30 °C;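 optical density after 20 h as mean of two plates; 100% = untreated growth and lower means inhibition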
# Numbers without * were called inactive; . = not tested or not shown.
SMILES,GIV-Gai inh,HCMV NEC inh,Sa growth inh,Sa growth inh second temp
O=C(Nc1nnc(S(=O)(=O)N2CCOCC2)s1)c1cccc(Br)c1,102.4,-8.6,96.3,82.9
Cn1nccc1-c1nc(-c2cccc(NC(=O)Nc3ccccc3)c2)no1,106.5,-30.0,.,.
CC1=NC(C(F)(F)F)(C(F)(F)F)C(C#N)=C(C)N1,99.4,4.3,101.0,101.7
COCCNC(=O)c1ccc(-c2nc(CS(=O)(=O)c3ccccc3)c(C)o2)cc1,108.8,.,96.7,83.8
COc1ccc(NC(=O)C(NC(=O)/C=C\c2ccc3c(c2)OCO3)c2ccc(C)cc2)cc1 (stereo not given),102.2,-19.1,102.5,87.5
COc1ccccc1-c1nn(CCC(=O)Nc2cccc(C(C)=O)c2)c2nc(C)cc(C)c12,102.7,0.0,110.4,82.2
COc1ccc(Br)cc1/C=C/C(=O)Nc1ccc(F)cc1F,102.4,-11.3,102.0,88.7
C(=N\c1sc2c(c1-c1nc3ccccc3s1)CCCC2)/c1ccco1,.,-23.6,103.4,97.2
Cn1cnc2c(oc3ccccc32)c1=O,105.7,-16.1,101.8,94.5
COc1ccc(N2CCN(C(=O)Cc3noc4ccc(C)cc34)CC2)cc1,100.3,-3.0,95.7,99.0

# A second format for some results above:
SMILES | GIV-Gai inh | HCMV NEC inh | Sa growth inh | Sa growth inh second temp
COc1ccc(NC(=O)C(NC(=O)/C=C\c2ccc3c(c2)OCO3)c2ccc(C)cc2)cc1 (stereo not given) | 102.2 | -19.1 | 102.5 | 87.5
COc1ccccc1-c1nn(CCC(=O)Nc2cccc(C(C)=O)c2)c2nc(C)cc(C)c12 | 102.7 | 0.0 | 110.4 | 82.2

# The list continues:
SMILES,GIV-Gai inh,HCMV NEC inh,Sa growth inh,Sa growth inh second temp
Cc1oc2cc(OC(C)C)ccc2c(=O)c1Oc1ccccc1,102.8,-11.2,94.3,99.5
Cc1cccn2c(=O)c(/C=N/NC(N)=O)c(NCc3ccco3)nc12,106.3,-10.6,99.5,82.1
O=C(NC1=NCCCN1)c1c(Cl)cccc1Cl,101.8,-18.9,80.6,89.5
COc1ccc(C(=O)Nc2nc(-c3nnn(-c4cc(OC)ccc4OC)c3C)ns2)cc1,101.8,.,109.0,110.9
Cc1cc(=O)n2[nH]c(CNc3ccccc3Cl)nc2n1,106.9,-26.7,.,.
O=C(O)CCN1C(=O)/C(=C/c2ccc(-c3ccc(Cl)cc3Cl)o2)SC1=S,211.6,.,101.2,89.5
COc1ccc(CN2CCC(C(=O)NC3CCCC3)CC2)cc1OC,.,2.2,98.2,94.2
C=CCNC(=O)C1(c2cccs2)CCOCC1,102.4,-2.3,87.0,90.2
COc1ccc(C2(Nc3cccc(F)c3)C(=O)c3ccccc3C2=O)cc1,105.1,-10.2,105.4,69.6
CC(C)c1ccc(S(=O)(=O)N2CCN(CC(=O)C(C)(C)C)CC2)cc1,102.4,-3.4,102.3,99.8
COC(=O)c1ccc(COC(=O)c2c(C)nn(Cc3ccccc3Cl)c2Cl)o1,.,12.7,107.5,95.2
COc1ccc(N2CCN(C(=O)C3(S(=O)(=O)c4ccc(C)cc4)CC3)CC2)cc1,102.4,-21.6,96.5,91.2
Cn1c(=O)c2c(nc(SCSc3nc4c(c(=O)n(C)c(=O)n4C)n3C)n2C)n(C)c1=O,.,-4.4,103.2,88.6
CCCCn1c(SCC(=O)Nc2ccccc2)nc2ccccc2c1=O,103.0,4.0,114.9,112.8
CCOC(=O)C1CCN(C(=O)CN2C(=O)C3CCCCN3c3ccc(C(=O)N(C)C)cc32)CC1 (stereo not given),101.0,-4.6,.,.
CC1=C(C#N)C(C(F)(F)F)(C(F)(F)F)N=C(C2CCCCC2)N1,107.5,.,21.2,43.7
O=C(CN1C(=O)CSc2ncccc21)NCc1cccc(F)c1,102.2,-30.3,.,.
O=C(Oc1ccc(-c2nnco2)cc1)c1oc2ccccc2c1COc1ccccc1,.,3.6,96.3,100.3
O=C(NCc1ccccn1)C1CC(c2cccc(Br)c2)=NO1 (stereo not given),107.6,6.6,97.9,93.9
CCC1(C)Cc2c(sc3nc(SC)n(-c4ccc(OC)cc4)c(=O)c23)CO1 (stereo not given),102.5,3.0,.,.

# Quoted at random: 5 compounds from above
SMILES,GIV-Gai inh,HCMV NEC inh,Sa growth inh,Sa growth inh second temp
Cn1nccc1-c1nc(-c2cccc(NC(=O)Nc3ccccc3)c2)no1,106.5,-30.0,.,.
COc1ccccc1-c1nn(CCC(=O)Nc2cccc(C(C)=O)c2)c2nc(C)cc(C)c12,102.7,0.0,110.4,82.2
CC1=NC(C(F)(F)F)(C(F)(F)F)C(C#N)=C(C)N1,99.4,4.3,101.0,101.7
O=C(NCc1ccccn1)C1CC(c2cccc(Br)c2)=NO1 (stereo not given),107.6,6.6,97.9,93.9
CC1=C(C#N)C(C(F)(F)F)(C(F)(F)F)N=C(C2CCCCC2)N1,107.5,.,21.2,43.7

# The results go on:
SMILES,GIV-Gai inh,HCMV NEC inh,Sa growth inh,Sa growth inh second temp
CCCc1cc(=O)n2[nH]c(NCc3ccc(CC)cc3)nc2n1,102.2,-3.5,115.7,84.6
CCC(Sc1nc2nccnc2c(=O)n1Cc1ccccc1)C(=O)NC1CCCCC1 (stereo not given),104.1,-36.2,84.3,70.8
O=C(O)CSc1nc2ccc(C(=O)c3ccccc3)cc2[nH]1,103.0,-13.9,96.5,89.3
Cc1cc2nc(COc3cc(Cl)ccc3NC(=O)COc3ccccc3)cc(=O)n2o1,97.3,7.4,.,.
O=C(Nn1c(-c2ccc(Br)cc2)nc2ccccc2c1=O)c1ccc([N+](=O)[O-])cc1Cl,94.4,-40.6,.,.
Cc1cc(NC(=O)COC(=O)C2CCN(S(=O)(=O)c3ccc(C(C)C)cc3)CC2)no1,.,-5.1,107.8,81.4
Cc1ccccc1CN1C(=O)/C(=C\c2ccc(C(=O)N3CCOCC3)cc2)Sc2ccccc21,98.5,.,102.3,89.8
Cc1cccc(C(=O)Nc2ccc3c(c2)oc(=O)n3C)c1,110.9,16.8,.,.
Cc1noc(/C=C/N(C)C)c1S(=O)(=O)N(C)c1ccc(C(C)C)cc1,101.9,.,99.1,89.7
O=C(c1ccccc1)c1cnn(-c2ccc(Cl)cc2)n1,107.2,6.2,14.4,8.6
CC1Cc2cc(S(=O)(=O)N(C)CC(=O)NCc3ccccc3)ccc2N1C(=O)C1CC1 (stereo not given),100.5,.,95.5,84.5
COc1cccc2cc(-c3nc(Cl)c4c5c(sc4n3)CC(C)CC5)c(=O)oc12 (stereo not given),99.8,1.7,105.1,89.8
Cc1cc(C)cc(NC(=O)Cn2cnc3c(nnn3Cc3ccc(F)cc3)c2=O)c1,102.9,-6.1,93.3,91.9
CC(=O)c1cc(-c2ccccc2)n(CC(=O)Nc2ccc(C)cc2C)c1C,102.1,.,101.7,87.2
Cc1ccc(NS(=O)(=O)c2cc(-c3cc(C)no3)ccc2C)c(Cl)c1,105.8,.,78.0,88.7
CC(=O)c1ccc(NC(=O)c2cnc(N3CCCC3)nc2C)cc1,111.1,.,99.4,90.7
Nc1ccccc1N1CCN(C(=O)c2ccccc2)CC1,106.0,13.3,94.8,95.8
O=S1(=O)N=S(c2ccccc2)c2ccccc21 (stereo not given),98.4,-5.5,117.5,97.0
O=C(OC(C(=O)Nc1ccc(Cl)cc1C(F)(F)F)c1ccccc1)c1ccncc1 (stereo not given),.,-45.2,95.5,86.2
N#Cc1ncoc1-c1cccc(C(F)(F)F)c1,104.2,-3.4,114.8,93.3
Cc1csc(NC(=O)NC(C)(C)C)n1,.,12.5,95.0,106.1
COc1ccc(CCNC(=O)CCCn2c(=O)c3ccccc3n(Cc3ccc(F)cc3Cl)c2=O)cc1OC,108.4,-19.1,92.5,100.6
Cc1cc(C)n2c(Nc3cccc(C(F)(F)F)c3)c(-c3ccc(O)cc3)nc2n1,110.0,.,105.4,87.6
CCC(CO)NC(=O)c1cc2c(n(-c3ccccc3)c1=O)CC(C)(C)CC2=O (stereo not given),102.9,-27.0,95.9,74.0
CC1COC(CC(C)c2ccccc2)O1 (stereo not given),104.3,-16.8,99.5,86.7
O=C1C=C(N2CCCCC2)C2(CCCCC2)O1,104.6,8.7,86.4,73.7
Cc1nc(SCC(=O)NC2CCCC2)[nH]c(=O)c1Cc1ccccc1,106.0,-3.4,117.1,90.1
CSC1=NCCCN1C(=O)c1ccccc1I,100.6,23.4,98.1,99.5
CCC(CC)c1nc2ccccc2[nH]1,.,-3.8,86.8,94.3
CCOc1ccccc1NC(=O)CSc1nnc2[nH]c(=O)cc(-c3ccccc3)n12,103.1,.,86.7,81.8
CCOc1ccc(-n2c(SCc3nc(-c4ccccc4C)no3)nnc2-c2ccccc2)cc1,100.6,-36.9,96.7,85.8
CC(=O)c1ccc(NC(=O)NCCc2c[nH]c3ccccc23)cc1,101.9,7.6,111.6,101.8
Brc1cc2c(cc1COc1ccc(-c3nn[nH]n3)cc1)OCO2,109.0,-2.0,80.2,61.9
COC(=O)Cn1c(=O)oc2cc(S(=O)(=O)NC3CCN(Cc4ccccc4)CC3)ccc21,100.5,-0.3,.,.
CCOc1ccc(CNC(=O)Cn2cc3c(n2)-c2c(oc(C(=O)N4CCOCC4)c2C)CC3)cc1,106.0,.,88.6,71.1
CN(C)c1ccc(-c2nnn(CC(=O)N(C)C3CCCCC3)n2)cc1,101.8,-11.6,122.8,92.7
Cn1c(=O)c2c(nc(NCCCCO)n2Cc2ccccc2Cl)n(C)c1=O,107.2,-33.4,87.6,85.8
Cc1ccc(S(=O)(=O)c2c(O)cc(C)c(NS(=O)(=O)c3ccc(Cl)cc3)c2C)cc1,96.6,6.1,93.3,76.3
COCCCNC(=O)CN1C(=O)COc2ccc(S(=O)(=O)N3CCCCCC3)cc21,104.2,-18.4,119.0,89.2
COc1cc(C)c(C)cc1S(=O)(=O)N1CCc2cc3cccc(C)c3nc21,99.1,-12.6,.,.
Cc1ccccc1-c1cc(N2CCN(S(=O)(=O)c3c(C)noc3C)CC2)ncn1,102.5,-20.6,.,.
O=C(Nc1cccc(C(=O)N2CCN(C(=O)c3ccco3)CC2)c1)c1ccccc1,107.2,-12.1,106.9,94.3
Cc1ccc(CNC(=O)C(=O)NCC(c2cccnc2)N2CCN(c3ccc(F)cc3)CC2)cc1 (stereo not given),100.6,-13.7,103.8,88.8
Cc1cc(N=Cc2ccc3ncccc3c2)ccc1Br,.,-8.7,90.6,96.7
Cn1cc(C(=O)Nc2ccc(F)cc2)c2[nH]c(=O)n(-c3ccc(Cl)cc3)c(=O)c21,101.7,-6.0,.,.
O=C(Nc1ccc(F)cc1)c1cncc(NS(=O)(=O)c2ccc(F)cc2)c1,109.2,11.0,.,.
CC(C)(C#N)N1CCOCC1,.,-11.4,109.7,90.5
CC(=O)c1cccc(NC(=O)CCCN2C(=O)COc3ccc(C)cc32)c1,116.4,7.3,74.1,72.7
O=C(CCC(=O)c1ccccc1)Nc1nccs1,.,-13.2,100.8,97.9
NC(=O)c1ccc(OCc2cc3c(cc2Br)OCCO3)cc1,.,6.7,103.8,94.0
# Other structures follow.
SMILES,GIV-Gai inh,HCMV NEC inh,Sa growth inh,Sa growth inh second temp
CCn1c(Sc2c(C)c3cc4c(cc3[nH]c2=O)OCO4)nnc1-c1ccccc1,97.4,-25.0,89.0,90.6
O=C(CSc1nnc(-c2ccccc2)c(-c2ccccc2)n1)NC1CCCCC1,101.2,.,92.4,92.2
O=C(O)Cn1c2c(c3cc(F)ccc31)CCCC2,97.9,-22.5,124.4,87.0
O=c1[nH]nc(-c2cccs2)cc1Cc1ccsc1,105.6,-66.2,98.0,95.7
COc1ccc(CCNC(=S)Nc2ccc(N3CCOCC3)c3nonc23)cc1OC,106.8,-73.3,101.0,93.0
O=C(CC1S/C(=N/N=C/c2ccco2)NC1=O)Nc1ccc(Cl)cc1 (stereo not given),103.9,-42.8,81.8,91.4
CON(C)C(=O)c1sc2ccccc2c1Cl,102.9,-9.1,88.2,96.6
Cc1ccc(CC(C#N)Sc2nnc(COc3ccccc3Cl)n2C)cc1 (stereo not given),.,6.3,92.9,86.8
CC(Sc1ccc2c(c1)OCCO2)C(=O)Nc1ccccc1C#N (stereo not given),.,-6.2,86.6,94.2
CCc1ccccc1OCCCN(CC)CC,.,-3.6,95.1,86.4
Cc1ccc(NS(=O)(=O)c2ccc(NC(=O)N3CCCC3)cc2)cc1C,106.9,.,116.1,93.8
Nc1c(C(=O)O)noc1C(=O)c1ccccc1,100.7,-89.1,97.4,86.2
COc1ccccc1N(CC(=O)NC1CCCCC1)C(=O)c1csnn1,99.3,-15.1,105.4,88.3
COc1ccc2[nH]c(=O)c(CN(Cc3ccco3)C(=S)NCc3ccco3)cc2c1,97.6,-13.6,94.3,99.2
O=C(COc1ccc2ccccc2c1)NS(=O)(=O)c1ccccc1,98.4,.,101.4,84.6
CS(=O)(=O)Nc1ccc2[nH]cc(C#N)c2c1,98.5,3.6,85.1,90.2
CC1=C(c2ccc(C(C)C)cc2)S(=O)(=O)N=C1N1CCC(C(=O)NCc2ccc(C)o2)CC1,103.7,.,106.3,84.8
COC(=O)c1ccc(NC(=O)Nc2ccc3c(c2)nc(C)n3C)cc1,101.1,-29.5,102.4,90.5
CCCCN(C)C(=O)c1nn(C)c2c1CSc1ccccc1-2,97.6,.,82.1,86.7

# Compound activity (PubChem)
